# VACV mCherry inh = vaccinia inhibition (mCherry reporter); AID 720579; Potency, µM (titrated, usually from 36.5 µM), for inactives: at the highest dose activity change, negative = inhibition, most hits filed as inhibitors; hit rate 0.63% among 310,000; Vaccinia virus mCherry reporter infection, fluorescence; about a quarter of the inactives have no number; active = well fitted inhibition curve with a large enough effect; inconclusive = small, poorly fitted or top-dose-only effect; inactive = no such curve, though single readings can be large or run the other way; tested in A549 cells; note: nearly all actives have a fitted effect of over 35% in size; inactives centre near -10
# VACV Venus inh = vaccinia inhibition (Venus reporter). Vaccinia virus Venus reporter expression, fluorescence. Potency, µM (top dose mostly 36.5 µM), inactives show top-dose activity change, negative = inhibition, hits mostly inhibitors. hit rate 0.46% among 330,000. AID 720580; active means well fitted inhibition curve with a large enough effect; inconclusive means small, poorly fitted or top-dose-only effect; inactive means no such curve, though single readings can be large or run the other way; tested in A549 cells; note: nearly all actives have a fitted effect of over 30% in size; inactives centre near -10
# Active calls of the source: *; i = inactive; ? = inconclusive; · = not tested or not shown; & = joins results of further samples; [ ] = another dose, or the depositor's remark. % is set by controls: 0 for no effect and ±100 for the full control effect; potency is the fitted concentration of half-maximal effect.
SMILES,VACV mCherry inh,VACV Venus inh
COc1cccc(NC(=O)CN2C(=O)NC(c3ccccc3)(c3ccccc3)C2=O)c1,-23%,-5%
CC(=O)N1CCN(C(=O)CCNC(=O)c2ccc(Br)cc2)CC1,-24%,-10%
O=C(NCc1ccccc1Cl)c1csc([C@@H]2O[C@H](CO)[C@@H](O)[C@H]2O)n1,-3%,5%
CN1CCN(C(=O)C2(NC(=O)Nc3cccc(F)c3)CCCCC2)CC1,0%,-14%
C[C@@H]1CN([C@@H](C)CO)C(=O)CCCn2cc(nn2)CO[C@H]1CN(C)S(=O)(=O)c1ccc(Oc2ccccc2)nc1,-9%,-19%
CC1=NNC(=O)C1CCC(=O)N/N=C/c1ccco1 (centres undefined),i,1%
Cn1c(Cc2csc(N)n2)nnc1SC/C=C/c1ccccc1,·,-17%
CN1CCN(c2nc3ccccn3c(=O)c2/C=C(\C#N)S(=O)(=O)c2ccccc2)CC1,?,?
COc1ccc(CNC(=O)c2cnn(-c3ccc(C)cc3)c2C2CCN(C(=O)OC(C)(C)C)CC2)cc1,?,-26%
COc1cccc(CNC(=O)CN2C(=O)N(c3ccc(C)cc3C)S(=O)(=O)c3ccccc32)c1OC,-18%,-14%
CCOC(=O)c1c(NC(=O)CN2CCN(C(=O)C3CCCO3)CC2)sc(C)c1C (centres undefined),-4%,-25%
N#Cc1ccc(CSc2nnc(NC(=O)c3ccc(=O)[nH]c3)s2)cc1,-3%,-8%
Cc1ccc(N=C2CSC(=O)N2)cc1,-15%,-10%
CCn1c(SCC(=O)OC)nnc1-c1c[nH]c2ccccc12,0%,2%
CCOc1ccc(NS(=O)(=O)c2ccc3ncsc3c2)cc1,-26%,-10%
CCN(CC)S(=O)(=O)c1ccc(Nc2cc(C)nc3ncnn23)cc1,-13%,1%
CCOC(=S)SCc1cn2cccc(C)c2n1,-22%,4%
Cn1nnc(NC(=S)NC(=O)c2cccs2)n1,-1%,-8%
Cc1cc(C)c(OCC(=O)N(Cc2ccccc2)C2CCS(=O)(=O)C2)c(C)c1 (centres undefined),-19%,-7%
Cc1ccc(S(=O)(=O)N2C[C@H]3C(=O)C[C@@H](c4ccccc4)N(S(=O)(=O)c4ccc(C)cc4)[C@H]3C[C@H]2c2ccccc2F)cc1,3%,-11%
Cc1cc(C(=O)NP(=O)(N2CCOCC2)N2CCOCC2)c(C)n1-c1ccc(N(C)C)cc1,i,-6%
COC(=O)c1sc(NC(=S)NC(=O)c2ccccc2Cl)nc1C,-10%,-3%
Cc1cccc(N2CCN(C(=O)c3cc4c(=O)[nH]c5ccc(C)cc5c4s3)CC2C)c1 (centres undefined),-32%,-31%
COc1ccc(C(C)(O)c2nc(-c3ccoc3)cs2)cc1 (centres undefined),-1%,5%
O=c1[nH]c(N2CCN(c3ccccc3)CC2)nc2c1CCCC2,-9%,-17%
COc1ccc(-n2nc(C(=O)NCC(=O)N3CCCCCC3)c3ccccc3c2=O)cc1,-8%,-6%
COc1ccc(CNC(=O)CN(Cc2ccccc2OC)C(=O)c2csnn2)cc1,-17%,-4%
CCCc1nc2sc3ccccc3c(=O)c2c(=O)n1Cc1ccccc1,i[7.34 µM],-17%[7.34 µM]
Cc1c(F)cccc1NS(=O)(=O)c1cccs1,-5%,-17%
NC(CO)c1csc(NC(=O)Nc2cccc(Cl)c2)n1 (centres undefined),i,-9%
c1ccc(-c2cnc(C3CCCCC3)o2)cc1,i,-8%
COc1ccc(S(=O)(=O)N2CCN(c3ccc4nnc(-c5ccc(F)cc5)n4n3)CC2)cc1,?,?
O=C(Nc1nc2c(s1)CCCCCC2)Nc1ccc(F)cc1F,?,?
COc1ccc(N=C2NC(=O)/C(=C\C=C\c3ccccc3)S2)cc1,0%,-10%
COc1ccccc1NC(=O)C1CCN(C(=O)c2sc3nc[nH]c(=O)c3c2C)CC1,-14%,-9%
Cc1cccc(C(=O)NCC(c2ccco2)N(C)C)c1 (centres undefined),-7%,-19%

# Structural class: the entries above containing a furan ring, fused or not.
SMILES,VACV mCherry inh,VACV Venus inh
CC1=NNC(=O)C1CCC(=O)N/N=C/c1ccco1 (centres undefined),i,1%
COc1ccc(C(C)(O)c2nc(-c3ccoc3)cs2)cc1 (centres undefined),-1%,5%
Cc1cccc(C(=O)NCC(c2ccco2)N(C)C)c1 (centres undefined),-7%,-19%

# Quoted from the listing.
# In VACV Venus inh, CN1CCN(C(=O)C2(NC(=O)Nc3cccc(F)c3)CCCCC2)CC1 reads -14%
# In VACV Venus inh, Cc1ccc(S(=O)(=O)N2C[C@H]3C(=O)C[C@@H](c4ccccc4)N(S(=O)(=O)c4ccc(C)cc4)[C@H]3C[C@H]2c2ccccc2F)cc1 reads -11%
# In VACV mCherry inh, COc1ccccc1NC(=O)C1CCN(C(=O)c2sc3nc[nH]c(=O)c3c2C)CC1 reads -14%
# In VACV Venus inh, COc1ccc(-n2nc(C(=O)NCC(=O)N3CCCCCC3)c3ccccc3c2=O)cc1 reads -6%

# (listing goes on)
SMILES,VACV mCherry inh,VACV Venus inh
COc1ccc(N2CCN(Cc3nc(-c4ccccc4)no3)CC2)cc1,-2%,-3%
COc1cc2c(NC3CCN(C)CC3)nc(N3CCCCC3)nc2cc1OCCOCCN1CCCC1,?,10µM*
O=c1c([N+](=O)[O-])cc(C(F)(F)F)cn1Cc1c(Cl)cccc1Cl,i,-10%
CC(C)c1ccc(NC(=O)c2ccccc2NC(=O)C2CC=CCC2C(=O)O)cc1 (centres undefined),i,-5%
O=C(Nc1ccc([N+](=O)[O-])cc1)C1C(c2ccccc2)=C1c1ccccc1,0%,6%
CC(C)(Oc1ccc(Cl)cc1)C(=O)Nc1nc2ccc(S(C)(=O)=O)cc2s1,i,-10%
Cc1ccc(NC2=NCC(=O)N2CCc2ccccc2)cc1C,-28%,-20%
O=C(NNC(=O)c1cnccc1C(F)(F)F)c1ccccc1,-13%,-4%
C/C(=N\Nc1ccc(S(N)(=O)=O)cc1[N+](=O)[O-])c1ccco1,?,1%
CCOC(=O)c1cnn(-c2nc3c(C)cccc3s2)c1C,·,-14%
N#C/C(=C/c1ccc(O)cc1)c1nc(-c2ccc(-c3ccccc3)cc2)cs1,-22%,-9%
CN1[C@@H]2CC[C@H]1CC(OC1c3ccccc3CCc3ccccc31)C2 (some centres undefined),-15%,-24%
O=S(=O)(c1ccc(Oc2ccc3c(c2)OCO3)c(S(=O)(=O)N2CCOCC2)c1)N1CCOCC1,15%,-13%
Clc1ccccc1CSc1nc2ccncc2[nH]1,i,-8%
CCOC(=O)c1cccc(NC(=O)CCc2c(C)nn(-c3ccc(N4CCCC4)nn3)c2C)c1,-4%,-11%
CCCCNC(=O)C1CCCN1C(=O)Nc1cccc(OC)c1 (centres undefined),-13%,-11%
COc1cccc2c1cc1c(=O)n(CC(=O)N3CCCC3)nc(C)n12,-14%,-16%
Cc1cccc(NC(=O)C(C)SCc2nc3sc(C)c(C)c3c(=O)[nH]2)n1 (centres undefined),i,-8%
CC(=O)c1ccc(N2CCN(S(=O)(=O)c3ccc4c(c3)CC(C)N4C(=O)C3CCC3)CC2)cc1 (centres undefined),-14%,-29%
Cc1nc2ccc(C(=O)N3CCOc4ccc(CN5CCOCC5)cc4C3)cc2nc1C,-4%,14%
CCOc1ccc(N(CC)C(=O)c2noc3c2COc2ccc(C)cc2-3)cc1,2%,-2%
COC(=O)c1c(NC(C)=O)sc2c1CCN(Cc1ccccc1)C2,?,-17%
CCOc1ccc(NC(=O)COC(=O)COc2cccc3c2OC(C)(C)C3)cc1,i,-9%
COc1ccc(CCNC(=O)NC(C(F)(F)F)C(F)(F)F)cc1OC,·,-1%
CC1CC(C)CN(C(=O)COC(=O)c2cccc([N+](=O)[O-])c2)C1 (centres undefined),-3%,-10%
O=C(N/N=C/c1ccccc1)c1ccc(N2CCOCC2)c([N+](=O)[O-])c1,-11%,-7%
COCCNC(=O)c1cc2sccc2n1C,i,-15%
COCC(=O)Nc1cc(C(=O)N2CC3CCCC2C3)c2c(c1)nc(-c1ccncc1)n2C (centres undefined),-2%,-6%
COc1ccc(NC(=O)CN2CCN(c3ccccc3F)CC2)cc1,·,-23%
C/C(=N\NC(=O)c1ccccc1)c1ccc(N2CCCCC2)cc1,-3%,?
O=C(c1ccccc1)N1CCN(S(=O)(=O)N2CCOCC2)CC1,-15%,3%
Cc1ccc(/C(=N/Nc2ncnc3ccccc23)C(=O)O)cc1,-24%,-15%
COC(=O)C1=C(C)Nc2nnnn2C1c1cc(OC)ccc1OC (centres undefined),-12%,-8%
O=C(Nc1ccc(N2CCOCC2)cc1)c1cnccn1,15%,-5%
O=C(Nc1cccc(C(F)(F)F)c1)c1cc(S(=O)(=O)N2CCCCC2)ccc1N1CCOCC1,·,-28%
CC(=O)N(C(C)=O)C1=C(C#N)C2(CCCCC2)Cc2ccccc21,?,?

# One compound at a time (already shown). Values in the order: VACV mCherry inh | VACV Venus inh
# `CC(=O)N(C(C)=O)C1=C(C#N)C2(CCCCC2)Cc2ccccc21` is listed with ? | ?
# `COc1cc2c(NC3CCN(C)CC3)nc(N3CCCCC3)nc2cc1OCCOCCN1CCCC1` is listed with ? | 10µM*

# Next part:
SMILES,VACV mCherry inh,VACV Venus inh
O=C(NC(=S)NCc1ccco1)c1ccccc1,-7%,4%
Cc1cccc(C)c1NC(=O)CCCSc1nnc(N)s1,i,-6%
Cn1c(CNC(=O)c2ccc3c(c2)OCO3)nnc1SCC(=O)Nc1ccccc1F,-19%,-14%
COc1ccc(Cn2cnc3c4cc(F)ccc4n(C)c3c2=O)cc1,-13%,-14%
Cc1cc(NC(=O)CCC(=O)N(CC(=O)NC2CCCC2)Cc2ccccc2Cl)no1,i,-9%
CC(C)OP(=O)(OC(C)C)C(Nc1cccc(C(=O)O)c1)c1ccccc1 (centres undefined),-10%,-18%
O=C(NCCc1ccccc1F)c1[nH]c(C(F)(F)F)nc1-c1ccccc1,i,-4%
CCOC(=O)c1c(S(=O)(=O)NCC(=O)NCc2ccccc2Cl)c(C)n(C)c1C,-4%&0%,-15%&-10%
Cc1ccc(-n2c(/C=C/c3cccs3)nc3ccccc3c2=O)cc1C,-16%,-11%
Cc1sc(NC(=O)CSc2nc(N)n(CC(=O)c3ccccc3)n2)c(C#N)c1C,-11%,-13%
c1ccc(Oc2ncnc3ccccc23)cc1,?,-4%
Cn1nc(CC(=O)N2CCN(c3ccccc3)CC2)c2ccccc2c1=O,-4%,4%
CN(C)c1nnc(-c2ccc(Cl)cc2)o1,-2%,-7%
O=C(COC(=O)COc1ccc(Cl)cc1Cl)Nc1cccnc1Cl,-13%,-18%
Cn1c(=O)c2ncn(CC(=O)Nc3cccc(-c4nc5ccccc5s4)c3)c2n(C)c1=O,i,-6%
C=CCCC(=O)Nc1nc(C)c(-c2csc(Nc3ccc(Cl)cc3)n2)s1,?,?
CC(C)(C)OC(=O)N[C@H](C(=O)OC(C)(C)C)c1ccc(Br)cc1,i,-8%
CCCSc1cc(=O)n(-c2ccccc2)nc1C(=O)O,-1%,-11%
CC1CCCN(CCCNC(=O)c2ccc(CS(=O)(=O)c3c(Cl)cccc3Cl)o2)C1 (centres undefined),-10%,-12%
CCCCN(CC)CCCNC(=O)CS(=O)(=O)Cc1nc(-c2ccc(C)cc2)oc1C,-21%,-23%
Cc1ccc(Nc2c(-c3ccc(N4CCOCC4)cc3)nc3ncccn23)cc1,?,-9%&-23%
CC(C)NC(=O)c1cc(C(=O)c2cc(Cl)ccc2O)coc1=N,?,-13%
O=C(NCCc1ccncc1)c1ccc2nc(Cc3cccc(Cl)c3)oc2c1,-6%,-17%
COc1ccc(CNC(=O)CN2CCC(NC(=O)c3ccccc3C)CC2)cc1,2%,-4%

# Pulled by compound from above:
SMILES,VACV mCherry inh,VACV Venus inh
COc1ccc(CNC(=O)CN2CCC(NC(=O)c3ccccc3C)CC2)cc1,2%,-4%
Cn1c(=O)c2ncn(CC(=O)Nc3cccc(-c4nc5ccccc5s4)c3)c2n(C)c1=O,i,-6%
C=CCCC(=O)Nc1nc(C)c(-c2csc(Nc3ccc(Cl)cc3)n2)s1,?,?
CCCCN(CC)CCCNC(=O)CS(=O)(=O)Cc1nc(-c2ccc(C)cc2)oc1C,-21%,-23%

# Other results follow:
SMILES,VACV mCherry inh,VACV Venus inh
CCOc1ccc(CNC(=O)c2ccc3[nH]c(C)c(C)c3c2)cc1OC,-10%,-1%
CCc1c(C)nc2cc(-c3ccc(OC)c(OC)c3)nn2c1NCC1CC1,?,?
COC(=O)c1ccc2c(=O)n(CCCN3CCOCC3)c(=S)[nH]c2c1,i,-5%
COc1ccc(Cl)cc1NC(=O)CSc1nnc(C)n2c1cc1occc12,i,-18%
Cc1cc(=O)[nH]c(NNC(=O)c2ccc(Cl)cc2)n1,i,-5%
COc1ccc(/C=C(/C#N)C(=O)Nc2ccc(C)cc2C)cc1C(=O)O,·,-25%
O=C(O)c1n[nH]c2ccccc12,·,-6%
Cc1ccc(Oc2cc([N+](=O)[O-])cc3c2C(=O)Nc2ccccc2O3)cc1,?,-9%
O=[N+]([O-])c1ccc(N2CCOCC2)c(S(=O)(=O)N2CCOCC2)c1,-16%,-17%
CN1C(=O)C(C)(C)c2cc(S(=O)(=O)NCC3CCC(C(=O)NCc4ccccc4)CC3)ccc21 (centres undefined),-12%,-9%
O=C(NC1CCCCC1)c1ccc(-c2cn[nH]c2)c2ccoc12,2%,-4%
O=C(NCC1CCCO1)C1CCN(S(=O)(=O)c2cccc3cccnc23)CC1 (centres undefined),2%,-14%
CCN(c1cccc(C)c1)S(=O)(=O)c1ccc2c(c1)CCCN2C(C)=O,-25%,10%
CCOC(=O)Cc1c(C)nc2cc(-c3ccc(C)cc3)[nH]n2c1=O,-16%,-16%

# Screens deposited in PubChem BioAssay by National Center for Advancing Translational Sciences (NCATS).
